eIF4H FP inh = human eIF4H binding inhibitors, primary screen, translation initiation inhibitor project, biochemical, uHTS, fluorescence polarization | inhibition, % at 35 µM | 290,000 compounds, 0.94% hits | AID 2012, 2009 | eIF4H fluorescence polarization binding assay | Eukaryotic translation initiation factor 4H (Homo sapiens), Q15056;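 active means 50% or more with normal probe brightness, or confirmed in later tests; inconclusive means above 50% with abnormal brightness, or retests that disagree; inactive means below 50% or failed in later tests; about a fifth of its hits are not listed in these tables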;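 further: calls also rest on retests at 20 µM and on dose response follow-up; 0% = protein and probe with vehicle and 100% = probe without protein; strong numbers were not always called active; many hits fall short of the cut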
Env fusion inh = inhibitors of HIV-1 Env-driven cell-cell fusion, primary screen, HeLa-JRFL effector, CEM21 target cells, luciferase | 360,000 compounds, 1.1% hits | inhibition, % at 12.3 µM;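 active means mean replicate inhibition score of at least 50 and every replicate individually at or above 50; inconclusive means only one of the two criteria met; inactive means mean below 50 and not all replicates reaching 50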;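 further: 0% = plate neutral controls and 100% = maraviroc near 300 nM; one replicate is shown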
CSC inhib = cancer stem cell viability inhibitors, primary screen, luminescence; AID 2717, 2010; 300,000 compounds, 1.1% hits; cancer stem cell-like cells viability; inhibition, % at 7.5 µM;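 active means mean at 75% or more and at least half the replicates too; inconclusive means mean and replicates disagree; tested in HMLE shEcad cells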;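 further: 0% = median of negative and 100% = median of positive control wells; the first replicate is given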
MT1-MMP act inh = blockers of MT1-MMP proenzyme processing, primary screen, HT1080 RFP-PRO-GFP cells, GFP/RFP fluorescence; GFP/RFP ratio change, % at 20 µM; Matrix metalloproteinase-14 (Homo sapiens), P50281; 360,000 compounds, 0.061% hits; GFP/RFP ratio fluorescence, overnight; percent of plate control window, DMSO zero;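 active means GFP/RFP ratio change of at least 30% with cell ATP level not reduced by more than half and red fluorescence within 50% of control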; further: strong numbers were not always called active
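system = RFP-PRO-GFP reporter HT1080 cells | dosing = 20 µM single dose, 1% DMSO | timing = overnight cell settling, then overnight compound exposure, 37 °C, 5% CO2 | read-out basis = GFP/RFP fluorescence ratio | controls = DMSO and RFP-L50D-GFP cell wells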
Yeast UUG start = modulators of yeast start codon fidelity, primary screen, whole organism, S. cerevisiae, single point, plate reader. 350,000 compounds, 0.13% hits. S. cerevisiae UUG-firefly luciferase reporter, luminescence/redox ratio. activity score, % at 18.7 µM;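 active means replicate mean at a twofold rise or more, about +100% in these data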;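 further: firefly luciferase made from a UUG start codon reports start codon fidelity; reporter light over untreated wells divided by growth signal over untreated wells; some hits fall short of that in this replicate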
Rce1 inhib = yeast Rce1p protease inhibitors, primary screen, biochemical, fluorescence, cell-free homogeneous. calls only. yeast membranes, quenched prenylated peptide cleavage fluorescence. CAAX prenyl protease 2 (Saccharomyces cerevisiae (strain ATCC 204508 / S288c)), Q03530. 290,000 compounds, 0.27% hits. AID 2563, 2010;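 active means fall in fluorescence gain of 50% or more versus controls, with final raw signal at or below 3038400; inconclusive means same 50% fall but final raw signal above 3038400; inactive means fall in fluorescence gain under 50%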;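 further: plate controls were neutral control wells for no effect and wells lacking membranes for full effect; tested at 10 µM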
PABP polyA inh = PABP poly(A) RNA binding inhibitors, primary screen, biochemical, fluorescence polarization, uHTS. Polyadenylate-binding protein 1 (Homo sapiens), P11940. inhibition, % at 35 µM. 290,000 compounds, 1% hits;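 active means 50% or more with normal probe brightness, or confirmed in later tests; inconclusive means above 50% with abnormal brightness, or retests that disagree; inactive means below 50% or failed in later tests; about a fifth of its hits are not listed in these tables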;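 further: calls also rest on retests at 20 µM and on dose response follow-up; controls were probe without protein and protein plus probe with vehicle; some compounds called inactive have numbers as strong as hits; many hits fall short of the cut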
Target sequence (P11940 whole entry, looked up): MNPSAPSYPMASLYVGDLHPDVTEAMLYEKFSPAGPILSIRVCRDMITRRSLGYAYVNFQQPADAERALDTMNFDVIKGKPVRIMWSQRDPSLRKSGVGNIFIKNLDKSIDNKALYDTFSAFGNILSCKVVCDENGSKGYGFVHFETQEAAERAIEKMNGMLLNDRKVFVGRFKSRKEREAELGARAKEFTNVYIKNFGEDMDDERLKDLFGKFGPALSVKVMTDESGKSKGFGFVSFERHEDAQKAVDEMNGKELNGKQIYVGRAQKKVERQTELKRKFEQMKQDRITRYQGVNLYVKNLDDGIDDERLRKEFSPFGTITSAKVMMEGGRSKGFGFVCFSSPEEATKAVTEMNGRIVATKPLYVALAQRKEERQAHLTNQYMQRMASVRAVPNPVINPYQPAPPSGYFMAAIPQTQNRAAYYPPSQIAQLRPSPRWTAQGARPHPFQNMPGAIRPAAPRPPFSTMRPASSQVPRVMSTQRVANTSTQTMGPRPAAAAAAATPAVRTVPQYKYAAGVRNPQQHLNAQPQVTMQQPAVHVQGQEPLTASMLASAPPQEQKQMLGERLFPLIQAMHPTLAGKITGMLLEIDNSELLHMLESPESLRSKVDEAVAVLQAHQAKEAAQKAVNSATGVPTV
eIF4H FP inh retest = also measured in eIF4H FP inh; calls as there; inhibition, %; compound at 20 µM; confirmation average;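 mean of two retest wells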
PABP polyA inh retest = further read-out of PABP polyA inh, marked with its call; inhibition, %; compound at 20 µM; confirmation repeats;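 mean of two retest wells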
MT1-MMP act inh RFP = further read-out of MT1-MMP act inh, marked with its call; RFP signal change, %; measured here: RFP expression control read;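 0 = vehicle wells; hits needed this value within 50% of zero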
Starred values were filed as active, the others as inactive; i = inactive; ? = inconclusive; / = not tested or not shown. A portion of the library; the hit share may differ from the screen's.

SMILES	eIF4H FP inh	Env fusion inh	CSC inhib	MT1-MMP act inh	MT1-MMP act inh RFP	Yeast UUG start	Rce1 inhib	PABP polyA inh	others
N#CCCN1CCN(S(=O)(=O)c2ccc(S(=O)(=O)N3CCOCC3)cc2)CC1	-15	-108	-7	-1	-1	-18	i	-8
CCN1CCN(Cc2ccc(NC(=O)Nc3ccc(SC)cc3)cc2)CC1	-2	/	-5	0	-2	-24	i	-9
Cc1cc(Cl)ccc1OCCCC(=O)NNC(=O)c1ccncc1	/	/	-19	-10	-1	-4	/	/
C=CCOc1c(Br)cc(C2C3=C(CCCC3=O)N(C)C3=C2C(=O)CCC3)cc1OCC	15	-2	7	3	3	/	i	0
CCn1ncc(/C=N/N=C2\CCC3C4CCc5cc(O)ccc5C4CCC23C)c1C (stereo not given)	-1	/	58	1	-1	-20	i	-13
O=C(Nc1ccc2ccccc2c1)c1ccccc1Cl	/	-208	/	-4	0	-16	/	/
CCSc1ncc(C#N)c(N)n1	-4	-64	0	7	13	-2	i	3
O=[N+]([O-])c1ccc(S(=O)(=O)Nc2ccc(-c3ccc(N4CCCC4)nn3)cc2)cc1	/	-3	19	5	6	-9	i	/
CCc1nnc(NC(=O)CSc2ccc(-c3ccc(C)cc3)nn2)s1	-1	-26	7	4	-1	/	/	53	eIF4H FP inh retest=30;PABP polyA inh retest=47
CS(=O)(=O)N1CCCC(C(=O)N2CCOCC2)C1 (stereo not given)	1	/	-17	-1	6	-6	i	9
C=CCCCCCCCCC(=O)Nc1ncccn1	6	-3	-1	10	2	-7	i	2
Cc1ccc(CC2CC(=O)N(CCc3ccc4c(c3)OCO4)C2=O)cc1 (stereo not given)	-4	/	26	8	4	-11	i	-3
CC1CCCN(C(=O)CCNS(=O)(=O)c2ccc(Br)cc2)C1 (stereo not given)	/	-10	/	9	2	-7	i	/
Cc1ccc(C(=O)NCc2cccnc2)cc1S(=O)(=O)Nc1ccccc1	3	4	-9	1	-3	-8	i	-10
Cc1ccc(CN2CC(N3CCN(C)CC3)CS2(=O)=O)cc1 (stereo not given)	/	-15	/	1	3	-6	/	/
COc1cccc(C(O)c2nc(/C=C/c3ccc(C(F)(F)F)cc3)cs2)c1 (stereo not given)	/	-3	/	-2	-2	-2	/	/
O=C(Nc1nc2ccccc2[nH]1)c1ccccc1[N+](=O)[O-]	24	-28	1	3	5	/	i	4
CCOC(=O)N1CCN(C(=O)COC(=O)c2ccc(O)cc2O)CC1	-4	8	-14	-2	1	8	i	-6
Cc1cc(C(=O)Nc2ccc3c(c2)OCCO3)ccc1[N+](=O)[O-]	-1	-64	-1	3	-3	-2	i	18
CC(N=c1ccccn1C(=O)Nc1ccc(Cl)cc1)c1ccco1 (stereo not given)	-4	/	/	/	/	/	i	-2

Six compounds drawn at random from the list so far:
SMILES	eIF4H FP inh	Env fusion inh	CSC inhib	MT1-MMP act inh	MT1-MMP act inh RFP	Yeast UUG start	Rce1 inhib	PABP polyA inh	others
Cc1cc(C(=O)Nc2ccc3c(c2)OCCO3)ccc1[N+](=O)[O-]	-1	-64	-1	3	-3	-2	i	18
CCN1CCN(Cc2ccc(NC(=O)Nc3ccc(SC)cc3)cc2)CC1	-2	/	-5	0	-2	-24	i	-9
Cc1ccc(CN2CC(N3CCN(C)CC3)CS2(=O)=O)cc1 (stereo not given)	/	-15	/	1	3	-6	/	/
CC(N=c1ccccn1C(=O)Nc1ccc(Cl)cc1)c1ccco1 (stereo not given)	-4	/	/	/	/	/	i	-2
Cc1ccc(CC2CC(=O)N(CCc3ccc4c(c3)OCO4)C2=O)cc1 (stereo not given)	-4	/	26	8	4	-11	i	-3
CCn1ncc(/C=N/N=C2\CCC3C4CCc5cc(O)ccc5C4CCC23C)c1C (stereo not given)	-1	/	58	1	-1	-20	i	-13

Returning to the listing; the 2 compounds before the break are reprinted first.
SMILES	eIF4H FP inh	Env fusion inh	CSC inhib	MT1-MMP act inh	MT1-MMP act inh RFP	Yeast UUG start	Rce1 inhib	PABP polyA inh	others
Cc1cc(C(=O)Nc2ccc3c(c2)OCCO3)ccc1[N+](=O)[O-]	-1	-64	-1	3	-3	-2	i	18
CC(N=c1ccccn1C(=O)Nc1ccc(Cl)cc1)c1ccco1 (stereo not given)	-4	/	/	/	/	/	i	-2
COc1ccc(SCCN2CC[C@@H](C(C)(C)C)CCC2=O)cc1	/	-7	18	-1	-3	-1	/	/
CC(C)c1cc(NCC2CCCO2)n2c(nc3ccccc32)c1C#N (stereo not given)	1	15	-12	0	-6	-19	?	9
COC1(OC)C(/C=C/c2ccc(Cl)cc2)C(C#N)(C#N)C1(OC)OC (stereo not given)	-5	/	-13	-16	-18	/	i	-5
O=C(CN1CCN(C(=O)c2cccs2)CC1)NC1CCCCC1	-21	/	-15	3	7	6	i	12
O=C(O)c1ccc(NS(=O)(=O)c2ccc3nnn(O)c3c2)cc1	-8	/	21	5	2	/	i	8
CC(C(=O)N1CCOCCOCCOCC1)N1C(=O)c2ccccc2C1=O (stereo not given)	1	9	-7	1	5	/	i	-4
CCCCC(=O)Nc1cccc2c1C(=O)N(c1ccccc1)C2=O	2	/	-16	4	5	3	i	-5
O=C(NCC1CCCO1)c1cc([N+](=O)[O-])ccc1Cl (stereo not given)	-5	-70	4	1	5	-10	i	-15
CN(CC(=O)NCC1CCCO1)S(=O)(=O)c1cc(Cl)ccc1Cl (stereo not given)	-6	/	-10	-2	3	-4	i	-2
O=C(/C(Br)=C/Nc1cc(Cl)ccc1Cl)C(F)(F)F	-4	-9	-5	4	8	/	i	0
CC1CCCCC1NC(=O)C1CCN(S(=O)(=O)c2cccc3nonc23)CC1 (stereo not given)	-10	9	-3	3	3	-16	i	-2
CCc1cc(C(=O)N2CCCC(CNS(=O)(=O)c3cccs3)C2)n(C)n1 (stereo not given)	-4	8	2	0	2	/	i	1
Cc1ccc(S(=O)(=O)NCCOc2cc(C)ccc2C)cc1	10	11	1	3	-2	10	i	12
Cn1nc(-c2ccccc2)c(-c2nc(-c3ccc(Cl)cc3)no2)c1Cl	-10	-3	5	0	-2	-24	i	16
CC(C)OP(=O)(OC(C)C)C(Nc1ccccc1)c1cccc([N+](=O)[O-])c1 (stereo not given)	-1	3	-2	-3	-1	7	i	-1
Cc1nc2ccccc2c(=O)n1NC(=O)Nc1ccccc1	1	-13	6	10	-2	3	i	-3
O=C(NCc1ccco1)c1ccc2c(=O)n(CC3CCCO3)c(=S)[nH]c2c1 (stereo not given)	-1	/	/	-4	-9	-11	i	12
COc1ccc(C(=O)CN2C3=NCCCN3c3ccccc32)cc1OC	1	0	-2	0	-3	/	i	1
CCOc1cc(C)c(Cl)cc1S(=O)(=O)N(CC)CC	-13	/	-9	-2	-2	-9	i	-9
CCOC(=O)c1nn(-c2ccc(C)cc2)c(=O)cc1OCC(=O)Nc1cccc(OC)c1	/	/	8	0	-2	-9	i	/

Sorted by heavy-atom count (rising): 3 of the compounds above
SMILES	eIF4H FP inh	Env fusion inh	CSC inhib	MT1-MMP act inh	MT1-MMP act inh RFP	Yeast UUG start	Rce1 inhib	PABP polyA inh	others
CC1CCCN(C(=O)CCNS(=O)(=O)c2ccc(Br)cc2)C1 (stereo not given)	/	-10	/	9	2	-7	i	/
CN(CC(=O)NCC1CCCO1)S(=O)(=O)c1cc(Cl)ccc1Cl (stereo not given)	-6	/	-10	-2	3	-4	i	-2
CCCCC(=O)Nc1cccc2c1C(=O)N(c1ccccc1)C2=O	2	/	-16	4	5	3	i	-5

Going on with the list.
SMILES	eIF4H FP inh	Env fusion inh	CSC inhib	MT1-MMP act inh	MT1-MMP act inh RFP	Yeast UUG start	Rce1 inhib	PABP polyA inh	others
Cc1ccc(N(CC(=O)N2CCN(c3ccc(F)cc3)CC2)S(=O)(=O)c2c(C)nn(C)c2C)cc1	-8	-3	/	0	2	-20	i	-3
COc1ccc(C(CNC(=O)c2cc(S(=O)(=O)N3CCCCC3)ccc2C)N2CCCC2)cc1 (stereo not given)	/	-56	/	-1	1	-6	/	/
Cc1ccc2oc(=O)n(CCCOc3ccccc3)c2c1	1	-16	-2	2	2	-7	i	-4
CC(C)C[C@@H](CN1CCC[C@@H]1CN1C(=O)C(=O)NC[C@@H]1Cc1ccccc1)N1C[C@H](Cc2ccccc2)N(CC2CCCCCC2)C(=O)C1=O	/	-73	/	-3	-15	0	/	/
Cc1ccc(NC(=S)NCc2ccc3c(c2)OCO3)cc1C	-5	-8	/	2	6	/	i	-3
NC(=O)c1ncn([C@@H]2O[C@H](CNCc3cc(Br)ccc3OCc3ccccc3)[C@@H](O)[C@H]2O)n1	/	-8	/	0	2	-10	/	/
CCOC(=O)Cn1cc(C(=O)OC)c2ccccc21	-1	-46	/	0	5	-38	i	0
O=C(Nc1ccccc1)c1cc(S(=O)(=O)Nc2cccnc2)ccc1Cl	-2	-3	-2	2	3	-13	/	2
CC(C)c1ccc(/C=C/C(=O)N2CCCCCC2)cc1	-12	14	-5	-8	-1	/	i	-7
CC(NC(=O)c1ccc(N(C)C)cc1)C1CC2CCC1C2 (stereo not given)	-7	/	/	-2	-1	-21	/	-10
CC1CC(Nc2ccccc2)c2ccccc2N1C(=O)c1ccncc1 (stereo not given)	-2	26	-14	-4	-3	-12	i	-8
COc1ccc(Cl)cc1NC(=O)CC1CCCC1	-6	8	-10	-4	-4	-11	/	-2
CCCn1c(C)cs/c1=N\C(=S)Nc1ccccc1	6	2	-11	5	0	-21	i	0
COCCN1Cc2c(sc(C)c2C)N(C(=O)c2ccccc2)C1	-1	/	0	-3	5	-11	i	-16
COc1cc(C2C(C(=O)c3cc4ccccc4o3)=C(O)C(=O)N2c2cc(C)on2)cc(OC)c1OC (stereo not given)	-1	-3	-5	7	3	-11	i	5
CCOc1ccccc1NC(=O)c1cccc2c1C(=O)N(CCOC)C2	-9	-19	-3	6	-2	-4	i	8
Cc1cc(=O)[nH]c(=S)n1-c1ccccc1	3	/	1	-7	3	-11	i	4
COC(=O)C(NC(=O)c1ccccc1)(Nc1nc(C)cs1)C(F)(F)F (stereo not given)	-3	/	-13	-3	-3	-10	i	1
COc1ccc(-c2nnc(SCc3nnc(-c4cccs4)o3)n2CC2CCCO2)cc1 (stereo not given)	-1	-3	-21	-3	-1	-2	i	-14
O=C(Nc1ccccn1)C1CCN(S(=O)(=O)c2ccc(Cl)cc2)CC1	/	-3	-7	5	0	/	i	/
Cc1cccc(OCC(=O)Nc2ccc(S(=O)(=O)N3CCN(C)CC3)cc2)c1	0	/	16	6	5	-20	i	-2
Cc1ccc(S(=O)(=O)CCc2ccncc2)cc1	4	-4	-11	-1	-10	-11	i	8
COC(=O)N/N=C\c1ccc(OC(=O)c2ccco2)cc1	-7	-2	-8	-1	2	/	i	-9
COc1ccc(OCC(=O)N/N=C2\CCc3ccccc32)cc1	-9	5	-9	-2	0	-26	i	20

Compound activity deposited in PubChem BioAssay by several laboratories.
